# VACV E9 pol inh – vaccinia E9 polymerase processive synthesis inhibition; AID 493162; in vitro processive DNA synthesis, absorbance read-out; stronger effect = lower value; some inactives read as strong as hits; normalized absorbance, % (no concentration beside the values); actives 0.94% (n = 46,000);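 active = replicate mean up to 90% and picked by the depositor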;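 also: 100% = median of the test wells of a plate; 100 nL library stock went into each well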
# * marks the source's active call; other numbers are inactive results. Only part of the results is shown (hit frequency here may not be typical).
SMILES,VACV E9 pol inh
CC1CCN(C(=O)/C=C/c2c(Cl)nc3sccn23)CC1,101
O=C1CC(/C=C/c2ccccc2)=Nc2ccccc2N1,94
CS(=O)(=NC(=S)NC(=O)Oc1ccccc1)c1ccccc1 (stereo not given),106
CC(=O)Nc1cccc(NC(=O)CCn2c(=O)sc3ccccc32)c1,101
CC(=O)Nc1ccc(S(=O)(=O)NCc2ccc3[nH]c4c(c3c2)CCCC4)cc1,101
COC1=C2C[C@@H](C)C[C@H](OC)[C@H](O)[C@@H](C)/C=C(\C)[C@@H](OC(N)=O)[C@H](OC)/C=C\C=C(/C)C(=O)NC(=CC1=O)C2=O,103
Cc1ccc(N2C(=O)CSC2/C=C/c2ccccc2)cc1 (stereo not given),98
CCc1ccc(CN2CCNCC2)cc1,99
NCc1ccc(S(N)(=O)=O)cc1,100
CN1C(C(=O)N2CCCc3ccccc32)=CC(c2cccs2)=NS1(=O)=O,105
CC(C)(C)C1C/C(=C/c2ccccn2)C(=O)/C(=C/c2ccccn2)C1 (stereo not given),106
Cc1ccc(C)c(S(=O)(=O)c2nnn3c2nc(NCCC(C)C)c2ccccc23)c1,101
CC(C)c1ccc(NC(=O)CSc2n[nH]c(=O)n2C(C)c2ccccc2)cc1 (stereo not given),100
Cc1nccn1Cc1ccc(Cl)nc1,110
CC(C)C(CC(=O)O)NS(=O)(=O)c1ccc(F)cc1 (stereo not given),105
Cc1ccc2c(c1)C(c1ccccc1)=NCC(=O)N2C,104
c1ccc2[nH]c(CN3CCOCC3)nc2c1,101
COc1ccc(NC(c2c[nH]c3ccccc23)P2(=S)OCC(C)(C)CO2)cc1 (stereo not given),99
CCOC(=O)c1c(Cc2cccc(C)c2)c[nH]c1-c1ccccc1,100
O=C(Nc1ccc(C(F)(F)F)cc1)c1ccc2c(c1)CCO2,77
O=C(CN1C(=O)/C(=C/c2ccccc2F)Sc2ccccc21)NCc1ccc2c(c1)OCO2,92
O/N=C/C1=C(Cl)c2ccccc2CC1,78*
O=C(NCCc1ccncc1)Nc1ccc(Cl)cc1,98
CSc1c(C#N)c(-c2ccccc2)nn1CC(=O)NN,104
O=C(COC(=O)c1ccc(F)cc1Cl)c1ccc(Br)cc1,104
# Next records.
SMILES,VACV E9 pol inh
O=C(Nc1ccc(F)cc1)C1c2ccccc2Oc2ccccc21,101
CC(O)c1ccc(N(C)C)c2c(N(C)C)cccc12 (stereo not given),95
C(=Nc1ccc2ccccc2c1)Nc1ccc2ccccc2c1,95
Cc1ccc(-c2csc(=Nc3ccccc3)n2CCCN(C)C)cc1,100
COc1ccc(/C=C2/SC(=S)N(CC(=O)NCc3ccccc3)C2=O)cc1,101
COc1ccc(Cc2nc3ccccc3[nH]2)cc1,95
COC(=O)c1coc(-c2ccccc2)n1,102
Cc1ccc2cc(CCNC(=O)C3CCCCC3)c(=O)[nH]c2c1C,100
N#Cc1ccc(N2CCCC2)c(C#N)c1Cl,86
COC(=O)c1c(-c2c(Cl)cccc2Cl)noc1NC(=O)N(C)C,96
Cc1cc(-c2cc(N)n(-c3ccccc3)n2)c(C)n1C1CCCC1,92
O=C(OCc1nc2ccccc2s1)c1coc2ccccc2c1=O,100
CCN(CC)C(=O)c1ccc(C(=O)c2ccccc2)o1,100
Cc1cccc(C(=O)N(CC#N)CC#N)c1,101
c1csc(Nc2nc3cc4c(cc3s2)OCO4)n1,97
Cc1ccc(-c2n[nH]c(=S)c3ccccc23)cc1S(=O)(=O)NCc1cccnc1,101
COC1OC(C)C(OCc2ccccc2)C(O)C1O (stereo not given),100
O=C(CN1C(=O)CSC1=O)N1CCCC1,100
O=S(=O)(NC12CC3CC(CC(C3)C1)C2)c1cccc(C(F)(F)F)c1,100
CC(=O)N/C(=C\c1ccc(Cl)cc1)C(=O)NCc1ccccc1,102
CC1(C)CC(NS(C)(=O)=O)CC(C)(C)N1O,101
Oc1ccc(Cn2nc(-c3ccc(O)cc3)c3ccccc32)cc1,100
CCN(CC)c1ccc(NC(=O)CSc2cccc[n+]2[O-])cc1,102
COCc1cc(C)nc2sc(C(N)=O)c(N)c12,100
O=C(CC(CC(=O)c1ccccc1)c1cccc2ccccc12)c1ccccc1,103
# Next compounds follow:
SMILES,VACV E9 pol inh
CCN(/C=C1\SC(=S)N(c2ccc(OC)cc2)C1=O)CC,101
N#Cc1ccc(COn2nnc3ccccc32)cc1,92
Cc1cc(C(F)(F)F)nc(SCC(=O)NCc2cccc(C(F)(F)F)c2)n1,100
CCC(C)NC(=O)C1CCC(=O)N(c2cc(OC)c(OC)c(OC)c2)C1c1ccc(OC)cc1 (stereo not given),98
O=C(COC(=O)c1ccccc1)c1ccc(-c2ccccc2)cc1,89
CCC(=O)Nc1ccc2nc(SCc3ccc(F)c4ccccc34)sc2c1,100
CC(C(=O)O)c1cccc(Oc2ccccc2)c1 (stereo not given),100
CC1(C)CC(c2ccccc2)(C(CO)CNCc2ccccc2)CCO1 (stereo not given),95
O=C(c1ccc(S(=O)(=O)Nc2ccccc2Cl)cc1)N1CCCC1,100
COc1ccc(CNC(=O)c2ccc3nc(N4CCOCC4)sc3c2)cc1,100
c1cncc(-c2nc3c4ccccc4nc(NCCCN4CCCCCC4)n3n2)c1,72
CCOC(=O)c1c(S(=O)(=O)NCc2ccccc2)c(-c2ccccc2)n(-c2ccccc2)c1C,101
CCOC(=O)C1CCN(c2nc3cc(Br)ccc3s2)CC1,96
Nc1ccc(N2CCOCC2)cc1,101
C[N+]1(CC(O)COc2ccccc2F)CCOCC1 (stereo not given),106
COc1ccc(C=Nc2nonc2N)cc1,100
O=C(Nc1nnc(-c2ccccc2)o1)c1cccc(C(F)(F)F)c1,104
O=C(O)CCCN=C1NC(=O)CC(=O)N1,100
C(=NCc1ccccc1)c1cn(-c2ccccc2)nc1-c1cccs1,100
CCS(=O)(=O)N1CCC(C(=O)N2CCc3ccccc3C2)CC1,86
Cn1cnnc1SCc1cccc(CSc2nncn2C)n1,100
CC1(C)C2CCC1(C)C(OCC[N+]1(C)CCCC1)C2 (stereo not given),99
N#CC1(NC(=O)c2cc3ccccc3oc2=O)CCCCC1,100
CCOc1ccc(-n2c(SC)nnc2-c2c[nH]c3ccccc23)cc1,101
CCCN(CCC)C(=O)CSc1nc2ncccc2[nH]1,95

# Four records drawn at random from those above, as already listed:
SMILES,VACV E9 pol inh
Nc1ccc(N2CCOCC2)cc1,101
CC(C(=O)O)c1cccc(Oc2ccccc2)c1 (stereo not given),100
CCOc1ccc(-n2c(SC)nnc2-c2c[nH]c3ccccc23)cc1,101
N#Cc1ccc(COn2nnc3ccccc32)cc1,92

# Continued.
SMILES,VACV E9 pol inh
CCCN(CCC)c1cc(Cl)nc(N)n1,104
N#C/C(=C\Nc1cc(C(F)(F)F)cc(C(F)(F)F)c1)S(=O)(=O)c1ccccn1,96
O=C1CS/C(=C\C(=O)N2CCOCC2)N1,114
O=C(O)COc1ccc2ccccc2c1Br,99
O=c1sc(N2CCN(C3CCCCC3)CC2)nc2ccsc12,100
CCc1ccc(NC(=O)CSC2=C(C#N)C(c3ccco3)C3=C(CCCC3=O)N2)cc1 (stereo not given),101
COc1ccc(NC2CS(=O)(=O)CC2NCc2ccccc2)cc1 (stereo not given),102
Cc1sc(NC(=O)C(C)C)c(C(=O)O)c1C,90
O=C(CCn1nc(-c2ccc(Cl)cc2)c2ccccc2c1=O)N1CCN(Cc2ccccc2)CC1,100
CCC(C)NC(=O)CSc1cc(=O)n(C)c2ccc(Cl)cc12 (stereo not given),99
CCC(=O)c1cc2c(C)cc(=O)oc2c(C)c1C(=O)c1ccccc1,93
O=C(CN1CCCC1)N1CCc2ccccc21,122
COc1ccc(NCc2cn3ccccc3n2)cc1,100
CC(=O)N1c2ccccc2C(C)(C)C2CCC(C)CC21 (stereo not given),97
COC(=O)c1cccc(Cl)n1,104
O=C(CSCC(=O)Nc1cccc2ccccc12)Nc1ccc(Br)cc1,99
Cn1cnc(S(=O)(=O)NCc2ccccc2)c1,114
CCCNC(=O)C1CCCN(c2nn3cc(-c4ccc(C)cc4)nc3s2)C1 (stereo not given),97
Cc1ccc(-c2nc3sc4c(n3n2)CC(C)(C)CC4=O)cc1,100
Cc1ncc(CO)c(CO)c1O,100
CC(CCc1ccccc1)N1C(=O)c2ccccc2C1C(=O)NCCc1ccccc1 (stereo not given),101
O=C(CSc1nnc(NC(=O)c2ccccc2)s1)Nc1ccccc1,99
COc1cc(N=Cc2c(O)[nH]c(=O)[nH]c2=O)cc(OC)c1OC,100
COc1ccc(N(C(C)=O)C2SC(=O)N(c3ccccc3)C2=O)cc1 (stereo not given),100
CC1CC(C)CN(C(=O)COc2ncnc3ccccc23)C1 (stereo not given),104
# Continuation:
SMILES,VACV E9 pol inh
CCC(=O)c1ccc2c(c1)OCCO2,101
O=C(NCCc1ccccc1)c1cccc(N2CCCC2=O)c1,103
FC(F)(F)c1cccc(-n2c(-c3ccncc3)n[nH]c2=S)c1,92
c1ccc(-c2cn3c4ccccc4n(CCN4CCCCC4)c3n2)cc1,59*
CCN(CC)c1ccc(C=Nc2cc(C)cc(C)c2)cc1,100
COc1ccc2cc(CCNC(=O)C(C)C)c(=O)[nH]c2c1,99
CCOC(=O)Cn1nc(C(F)(F)F)c(Br)c1C1CC1,100
CCCCc1cc(=O)oc2cc(OCC(=O)c3ccc(F)cc3)ccc12,100
CCc1ccc2oc3nc(N)c(C#N)cc3c(=O)c2c1,98
NC(=O)CNC(=O)c1ccc2ccccc2n1,99
NN(CCC(=O)NC1CCCCC1)C1=NS(=O)(=O)c2ccccc21,99
OCC1CC2CC(O)CC(C1)C2 (stereo not given),100
Clc1ccc(C2Nc3ccccc3O2)cc1Cl (stereo not given),98
CC1(C)COC(c2ccc(O)cc2)OC1,100
CC(=O)Nc1c(C)nc2nc[nH]n2c1=O,102
O=C1C=CC(=O)N1CCc1ccccc1,101
COc1ccc(N2Cc3ccc(OC)c(OC)c3C2=O)cc1,103
C=CCSc1ncc(-c2ccccc2)cn1,114
O=C(Cc1cccs1)NCc1ccc2[nH]c3c(c2c1)CCCC3,86
O=C(NC1CCCC1)C(c1cccs1)N(Cc1ccccc1)C(=O)C(F)(F)F (stereo not given),99
Cc1nn(C)c(C)c1CNC(=O)c1cc2nc(-c3ccc4c(c3)OCO4)cc(C(F)(F)F)n2n1,101
O=C(NCc1ccc2c(c1)OCO2)c1ccc(Cl)cc1,101
CC(C)(C)C1CC=C2[C@H](C1)[C@@H](c1ccsc1)C(C#N)=C(N)C2(C#N)C#N (stereo not given in full),96
CCc1cccc(CC)c1NC(=O)COC(=O)c1ccc2ccccc2n1,86
COC(=O)C1CCN(C(=O)c2ccc(Cl)cc2)CC1,99
# Carrying on:
SMILES,VACV E9 pol inh
S=c1sc2ccccc2n1CN1CCN(Cc2ccccc2)CC1,100
Cc1ccc(NC(=O)Cn2nnc3ccccc32)cc1,100
C(=Nc1cccc2c(N=Cc3ccco3)cccc12)c1ccco1,99
O=C(Oc1ccc2ccccc2c1)c1cccs1,100
Cc1ccc(-n2c(SCC(=O)NCC3CCCO3)nc3n[nH]c(C)c3c2=N)cc1Cl (stereo not given),93
CC1CCC(C(C)C)C(OCC(O)CNC(C)(C)C)C1 (stereo not given),104
COc1ccc2nc(-c3ccccc3)nc(N3CCCCC3)c2c1,105
CCn1c2ccccc2c2cc(C=Nc3ccc(C)cc3O)ccc21,91
Cc1cc(=O)oc(C)c1C(=O)NCC1COc2ccccc2O1 (stereo not given),103
CC1(C)COC(O)(C(F)(F)F)CC1=O (stereo not given),100
Cc1ccc(S(=O)(=O)Nc2ccc3nc(-c4ccccn4)[nH]c3c2)cc1,100
CCOC(=O)N1N=C(C)CC1(O)c1cccnc1 (stereo not given),92
O=C(NCC1NCCc2ccccc21)C1CCCCC1 (stereo not given),101
CCOc1ccc(NC(=O)c2ccccc2NC(=O)c2cccnc2)cc1,100
O=c1c(=O)n(Cc2ccc(Cl)cc2)ccn1Cc1ccccc1,101
CCOc1ccc(CCNC(=O)c2cccc3c2SCCC3=O)cc1OCC,110
OC1(C(F)(F)F)CC(C23CC4CC(CC(C4)C2)C3)=NN1 (stereo not given),101
CCOc1cc(/C=C/c2ccccc2OC)cc(=O)c2c(C)oc(C)c12,100
O=C(Nc1ccc2c(C(F)(F)F)cc(=O)oc2c1)c1cc(Cl)cc(Cl)c1,105
Cc1csc(NC(=O)c2sc3nc4c(c(C(F)(F)F)c3c2N)CCC4)n1,101

# Compounds from the list above that have fluorine (20):
SMILES,VACV E9 pol inh
CC(C)C(CC(=O)O)NS(=O)(=O)c1ccc(F)cc1 (stereo not given),105
O=C(Nc1ccc(C(F)(F)F)cc1)c1ccc2c(c1)CCO2,77
O=C(CN1C(=O)/C(=C/c2ccccc2F)Sc2ccccc21)NCc1ccc2c(c1)OCO2,92
O=C(COC(=O)c1ccc(F)cc1Cl)c1ccc(Br)cc1,104
O=C(Nc1ccc(F)cc1)C1c2ccccc2Oc2ccccc21,101
O=S(=O)(NC12CC3CC(CC(C3)C1)C2)c1cccc(C(F)(F)F)c1,100
Cc1cc(C(F)(F)F)nc(SCC(=O)NCc2cccc(C(F)(F)F)c2)n1,100
CCC(=O)Nc1ccc2nc(SCc3ccc(F)c4ccccc34)sc2c1,100
C[N+]1(CC(O)COc2ccccc2F)CCOCC1 (stereo not given),106
O=C(Nc1nnc(-c2ccccc2)o1)c1cccc(C(F)(F)F)c1,104
N#C/C(=C\Nc1cc(C(F)(F)F)cc(C(F)(F)F)c1)S(=O)(=O)c1ccccn1,96
FC(F)(F)c1cccc(-n2c(-c3ccncc3)n[nH]c2=S)c1,92
CCOC(=O)Cn1nc(C(F)(F)F)c(Br)c1C1CC1,100
CCCCc1cc(=O)oc2cc(OCC(=O)c3ccc(F)cc3)ccc12,100
O=C(NC1CCCC1)C(c1cccs1)N(Cc1ccccc1)C(=O)C(F)(F)F (stereo not given),99
Cc1nn(C)c(C)c1CNC(=O)c1cc2nc(-c3ccc4c(c3)OCO4)cc(C(F)(F)F)n2n1,101
CC1(C)COC(O)(C(F)(F)F)CC1=O (stereo not given),100
OC1(C(F)(F)F)CC(C23CC4CC(CC(C4)C2)C3)=NN1 (stereo not given),101
O=C(Nc1ccc2c(C(F)(F)F)cc(=O)oc2c1)c1cc(Cl)cc(Cl)c1,105
Cc1csc(NC(=O)c2sc3nc4c(c(C(F)(F)F)c3c2N)CCC4)n1,101

# High-throughput results: PubChem, ICCB-Longwood Screening Facility, Harvard Medical School
